UCH37 DUB inh – human UCH37 deubiquitinating enzyme inhibition; purified proteasome/UCH37, Ub-AMC cleavage fluorescence; 0.33% of 330,000 active; AID 588478; inhibition, % (test concentration not listed);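 active = mean of two replicates above 20%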;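 also: 0% = compound-free wells with enzyme and 100% = wells lacking proteasome; stock transfer was 100 nL into about 20 µL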
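Assay system: Proteasome-bound UCH37. Buffer or medium: pH 7.4 Tris-HCl (50 mM) with ovalbumin, ATP-MgCl2, DTT. Incubation: 30 min preincubation with enzyme, 25 min cleavage at room temperature. Measured by: fluorescence, ex 355 nm, em 460 nm. Read-out basis: percent inhibition. Control set: wells without proteasome as full block, compound-free enzyme plus substrate as uninhibited.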
FGF22 binding – binders of recombinant human FGF22 by thermal shift | Q9HCT0 | SYPRO orange fluorescence; percent of sucrose octasulfate shift, DMSO zero | calls only at 9.99 µM | 1.5% of 340,000 active | AID 651658;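 active = melting point raised past a set limit in the mean and every replicate; three in four hits are not shown here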
Beta2AR agonist – agonists of human beta-2 adrenergic receptor inducing internalization; response, % (no concentration beside the values); Am2.2-beta2AR cells, FAP receptor internalization, flow cytometry; reference of the scale not given here; AID 504454; 0.43% of 340,000 active;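 active = response above a set limit, near 3 SD of response in nonfluorescent compounds, cut at about 42% in these data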;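 also: stock transfer was 100 nL into about 11 µL; a reference agonist was the positive control; negative values mostly stem from fluorescent compounds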
LANA-H2B inh – blocks KSHV LANA binding to histone H2A/H2B; AID 2629; cell-free LANA-H2A/H2B peptide, fluorescence polarization; 0.6% of 320,000 active; inhibition, % (test concentration not listed); in the data active = inhibition mostly above about 10%, no sharp cut-off; inactive = mostly below about 6.7%;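 also: stock transfer was 7.5 nL into about 10 µL; 0% = median of vehicle wells and 100% = median of positive control wells; one replicate is shown; the record names a cut of 25% in any replicate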
Target sequence (Q9QR71 whole entry, looked up): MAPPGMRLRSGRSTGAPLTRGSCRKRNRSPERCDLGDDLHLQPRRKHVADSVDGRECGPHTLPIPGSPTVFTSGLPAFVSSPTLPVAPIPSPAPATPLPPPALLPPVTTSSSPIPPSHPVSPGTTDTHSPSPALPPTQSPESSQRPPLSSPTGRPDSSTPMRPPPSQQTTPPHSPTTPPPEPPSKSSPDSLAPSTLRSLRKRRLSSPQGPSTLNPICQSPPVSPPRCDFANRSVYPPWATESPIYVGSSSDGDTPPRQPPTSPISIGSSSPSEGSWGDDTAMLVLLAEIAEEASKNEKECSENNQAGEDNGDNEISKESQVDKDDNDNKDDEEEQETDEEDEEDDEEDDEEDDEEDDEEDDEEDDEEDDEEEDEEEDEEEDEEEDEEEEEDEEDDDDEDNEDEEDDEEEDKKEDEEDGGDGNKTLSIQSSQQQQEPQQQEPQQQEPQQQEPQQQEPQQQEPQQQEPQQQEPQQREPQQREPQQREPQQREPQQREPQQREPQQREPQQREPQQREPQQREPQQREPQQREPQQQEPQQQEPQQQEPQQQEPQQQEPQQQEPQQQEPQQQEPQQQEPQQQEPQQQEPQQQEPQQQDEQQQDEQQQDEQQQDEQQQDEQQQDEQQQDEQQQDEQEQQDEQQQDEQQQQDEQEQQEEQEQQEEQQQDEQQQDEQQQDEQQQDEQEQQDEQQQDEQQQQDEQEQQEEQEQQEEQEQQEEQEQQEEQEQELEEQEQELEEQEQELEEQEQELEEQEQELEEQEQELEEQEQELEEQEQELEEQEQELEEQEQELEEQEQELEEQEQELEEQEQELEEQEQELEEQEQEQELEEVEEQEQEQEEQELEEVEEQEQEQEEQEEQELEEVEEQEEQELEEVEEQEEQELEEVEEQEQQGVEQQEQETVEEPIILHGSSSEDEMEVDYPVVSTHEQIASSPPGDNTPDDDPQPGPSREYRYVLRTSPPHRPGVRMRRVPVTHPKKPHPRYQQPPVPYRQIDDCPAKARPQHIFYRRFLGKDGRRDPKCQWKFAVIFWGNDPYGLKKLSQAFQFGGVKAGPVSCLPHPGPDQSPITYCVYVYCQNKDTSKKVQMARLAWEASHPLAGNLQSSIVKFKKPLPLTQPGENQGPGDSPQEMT
ALR H2O2 inh – human ALR oxidase inhibition via reduced H2O2; purified ALR, DTT oxidation, H2O2 HRP-luminol luminescence; P55789; 3.8% of 290,000 active; inhibition, % (test concentration not listed);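 active = mean and each replicate at 75% or more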;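 also: stock transfer was 7.5 nL into about 7.5 µL; 0% = neutral wells and 100% = wells with inactivated enzyme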
HNF4A DNA FP – change in binding of human HNF4 alpha to DNA | P41235 | HNF4a-FITC DNA binding, fluorescence polarization, 1 h | activity change, % at 10 µM | 0.3% of 360,000 active | AID 1224865; in the data active = activity change above about 30%, passing the limit was not always enough;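 also: controls were the assay level and a saturating level of protein; the project sought stronger binding though the title names inhibitors; some compounds called inactive have numbers as strong as hits; positive values seem to mean higher polarization but the record does not say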
Ecoli growth – inhibitors of Escherichia coli growth. OD600, 23 h; stronger effect = lower value. OD600 absorbance (test concentration not listed). 0.21% of 330,000 active. AID 1053175;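 active = OD600 absorbance below the run mean of sample wells minus 3.6 SD, in any replicate, cut at about 0.56 in these data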;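 also: stock transfer was 300 nL into about 60 µL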
* marks the source's active call; other numbers are inactive results; i = inactive; · = no result given; & = joins results of further samples. These rows are one share of the data; the hit share may differ from the screen's.

SMILES	UCH37 DUB inh	FGF22 binding	Beta2AR agonist	LANA-H2B inh	ALR H2O2 inh	HNF4A DNA FP	Ecoli growth
Cc1cccc(C(=O)N2CCC(=O)N(C(COCc3cccc(C(F)(F)F)c3)Cc3ccccc3)CC2)c1 (centres undefined)	6.2	i	-1.8	-3.2	-5.1	-8.6	0.67
Cc1ccc(S(=O)(=O)N2CC[C@@H]2C(=O)O)cc1	2.6	i	-0.9	-4.2	0.1	3.5	0.665
COc1ccc(C(CC(=O)N2CCCC2)c2c(O)cc(OC)cc2OC)cc1 (centres undefined)	-0.4	i	-7.3	-6.4	·	-1.2	0.639
CN(C)c1ccc(C=c2c3cc(O)ccc3n3c2cc(-c2ccccc2)[n+]3C)cc1	·	i	-124.4	·	·	160.6	·
N#C/C(=C/N1CCOCC1)c1ccccc1	4.1	·	-6.6	-2.4	17.1	-2.4	0.716
O=C(NCCc1ccncc1)c1ccc2nc(Cc3cccc(Cl)c3)oc2c1	-2.0	i	2.5	7.5	2.2	1.6	0.733
Cc1ccc(C(C(=O)NC2CCCCC2)N(Cc2ccco2)C(=O)Cn2cnc3ccccc32)cc1 (centres undefined)	0.7	·	8.0	-7.9	-7.8	3.7	0.7
COc1ccccc1N1CCN(C(=O)Cn2c(=O)oc3cc(S(=O)(=O)N4CCCC4)ccc32)CC1	-0.7	i	3.1	-4.8	·	-0.2	0.707
CC(OC(=O)c1ccc(F)c(S(=O)(=O)N2CCOCC2)c1)C(=O)NC1CCCC1 (centres undefined)	2.9	·	0.7	·	·	3.4	0.702
O=C(CN1c2cccc3cccc(c23)S1(=O)=O)N1CCN(c2ccc(F)cc2)CC1	-30.6	i	-3.9	-3.3	·	-1.0	0.657
O=C(O)CCN=CC1=C(O)CC(c2ccccc2)CC1=O (centres undefined)	4.9	i	1.2	3.6	·	1.2	0.706
Cc1c(Cl)cccc1NC(=O)CN1CCN(CCN=CC2=C(O)CC(c3ccccc3)CC2=O)CC1 (centres undefined)	3.7	i	-6.6	1.3	-0.2	-4.7	0.719
O=C(c1cccc(Br)c1)N1CCCC1	4.9	·	-0.3	-3.8	-2.8	0.3	0.634
N#Cc1nc(-c2ccc(OCc3ccccc3)cc2)oc1NCCCN1CCOCC1	-15.1	·	13.5	-2.0	-7.4	0.2	0.647
COC(=O)c1ccc(NC(=O)C(=O)N2CCN(C(=S)Nc3cccc(OC)c3)CC2)cc1	3.9	·	-0.3	1.6	-14.5	2.5	0.69
Cc1cc(N2C(=O)C=CC2=O)c([N+](=O)[O-])cc1C	0.9	·	23.7	0.9	20.5	3.3	·
CCCN1CCC(=NNc2ccc(S(N)(=O)=O)cc2[N+](=O)[O-])CC1	3.4	i	-0.2	6.0	-3.0	-1.2	0.699
CC(=O)N1c2ccc(S(=O)(=O)NCCC(=O)NCc3ccc(Cl)cc3)cc2CC1C (centres undefined)	3.7	i	-2.8	-0.9	-1.5	0.1	0.7
O=C(COC(=O)c1ccccc1-n1cnnn1)c1ccccc1	1.3	·	-2.8	-2.6	-1.4	-1.1	0.655
CC(C)CCn1cnc2c1c(=O)[nH]c(=O)n2Cc1ccccc1	-0.1	i	3.8	-1.2	·	-4.5	0.601
CC(=O)c1ccc(S(=O)(=O)NC2CCSc3ccccc32)cc1 (centres undefined)	0.9	i	3.3	5.5	2.4	1.9	0.694
CCn1nc(C)c(CN2CCc3c([nH]c4ccccc34)C2C(C)(C)C)c1C (centres undefined)	-13.3	i	6.0	-0.5	11.5	0.0	0.702
O=C(CN1CCCCCC1)NC(c1ccccc1)c1ccccc1	0.5	i	6.8	-4.9	1.9	4.3	0.702
Cc1ccc(NC(=O)Nc2ccc(Cl)c(Cl)c2)nc1	0.7	i	1.4	-1.2	-3.4	2.2	0.67
COCCC(=O)N1CCCC(C(=O)c2ccc(C(F)(F)F)cc2)C1 (centres undefined)	5.6	i	-3.6	1.8	-0.3	-6.5	0.691
The results go on.
SMILES	UCH37 DUB inh	FGF22 binding	Beta2AR agonist	LANA-H2B inh	ALR H2O2 inh	HNF4A DNA FP	Ecoli growth
CCN1CCN(S(=O)(=O)c2ccc(Cl)c(C(=O)N(C)Cc3ccccc3)c2)CC1	1.9	i	3.2	4.2	-14.9	0.3	0.63
CC(C)CC(NC(=O)CNC(=O)C1O[C@@H]2OC(C)(C)O[C@@H]2[C@H]2OC(C)(C)O[C@@H]12)C(=O)O (some centres undefined)	-1.0	i	-5.1	-10.0	0.9	-3.6	0.703
O=C(CSc1ncn[nH]1)N(C1CCCCC1)C1CCCCC1	0.2	·	1.4	1.2	·	2.2	0.746
Cc1ccccc1NC(=O)CSc1nc(-c2ccccc2)cc(=O)[nH]1	-2.5	i	3.9	1.6	-2.6	-0.5	0.694
Cc1nc(SCC(=O)NC2CCS(=O)(=O)C2)c2c3c(sc2n1)CCCC3 (centres undefined)	2.8	i	-10.4	·	·	2.7	0.657
C/C=C/C1=CC(=O)C[C@H](c2ccc(Cl)cc2)C1	0.7	i	-3.5	-4.5	3.1	2.8	·
N#C/C(=C\c1cn(Cc2cccc(F)c2)c2ccccc12)C(=O)NCc1ccco1	-17.1	i	-1.7	-0.8	-15.9	3.3	0.728
O=S(=O)(Nc1nc2ccccc2[nH]1)c1ccc2ccccc2c1	1.2	·	-10.2	-0.3	-12.5	0.6	0.642
O=C(Nc1nc(-c2nc3ccccc3s2)cs1)C1COc2ccccc2O1 (centres undefined)	2.8	i	15.2	-3.4	1.1	-1.9	0.743
O=P(C1=C(N2CCOCC2)/C(=C\c2ccccc2)CC1)(N1CCOCC1)N1CCOCC1	-0.4	i	2.8	-3.6	3.6	-2.5	0.662
O=[N+]([O-])c1ccccc1CNc1ccc(F)c(Cl)c1	1.1	i	1.5	4.0	·	4.6	0.649
COc1ccc(S(=O)(=O)CCC(=O)NCCc2ccc(S(N)(=O)=O)cc2)cc1	2.3	·	-9.2	0.1	-10.3	-1.3	0.75
CC(=O)c1ccc(NC(=O)Cn2c3ccccc3c3nc(=O)cc(C)n32)cc1	-0.9	i	-2.3	-2.7	-10.2	5.6	0.706
COCCCNCc1cc(C)n(-c2cc(S(=O)(=O)N3CCOCC3)ccc2N2CCCC2)c1C	4.8	i	-0.9	·	·	-2.2	0.66
Cc1ccc(O)c(NC(=O)c2ccc3c(c2)C(=O)N(Cc2cccnc2)C3=O)c1	4.3	i	-72.9	0.5	-0.5	9.7	0.717
C[C@H](CO)N1C[C@H](C)[C@@H](CN(C)Cc2ccccc2)Oc2ccc(NC(=O)CCCCCC(=O)Nc3ccccc3N)cc2C1=O	6.4	i	23.0	-4.5	-0.8	0.3	·
O=C(c1cc2c(F)cccc2s1)N1CCCC1	4.6	i	-10.3	1.2	-3.1	3.1	0.7
CCSC(SCC)[C@H](O)[C@@H](O)[C@H](O)[C@H](O)CO	3.8	i	-0.1	-2.5&-7.9	3.1	-1.1	·
COc1cccc(-n2c(SCC(=O)Nc3cc(C)on3)nc3c([nH]c4ccccc43)c2=O)c1	6.9	i	-4.2	1.3	·	3.7	0.762
COc1cccc(NC(=O)c2ncn[nH]2)c1	0.7	·	17.2	2.6	-9.9	1.9	0.664
CC(C)(C)NC(=O)NC(=O)COc1ccccc1C#N	2.9	·	-1.7	4.9	-9.7	-0.5	0.678
Clc1ccc2oc(-c3ccccn3)nc2c1	-5.6	·	-67.2	-0.1	1.1	-0.2	0.725
CCCCCCn1c(COc2ccccc2F)nnc1SCC(=O)N1c2ccccc2NC(=O)C1(C)C	3.5	i	-11.3	-10.0	-9.8	0.3	0.764
COC(=O)C1C(=O)OC(C)(C)C1C(C)C(=O)c1ccc(C)cc1C (centres undefined)	0.6	i	1.1	0.2	-1.4	-2.9	0.64
COc1ccccc1CNC(=O)[C@@H](NC(=O)C1CCN(C(=O)[C@@H]2CCCN2)CC1)C(C)C	0.8	i	-13.9	2.4	-6.3	-4.3	0.727
Next part:
SMILES	UCH37 DUB inh	FGF22 binding	Beta2AR agonist	LANA-H2B inh	ALR H2O2 inh	HNF4A DNA FP	Ecoli growth
CCOC(=O)C1CCN(S(=O)(=O)c2cc3c4c(c2)C(C)C(=O)N4CCC3)CC1 (centres undefined)	-2.6	i	9.4	0.8	-1.7	1.6	0.7
Cc1cccnc1NC(=O)CCn1c(=O)oc2ccccc21	2.5	i	-2.0	0.1	13.9	-2.9	0.697
N#Cc1c(-c2ccccc2)ccn(Cc2ccc(Cl)cc2)c1=O	-17.6	·	-2.4	2.9	-16.2	-1.0	0.776
COc1ccc(CN(Cc2cccn2C)S(=O)(=O)c2ccccc2)cc1	2.1	i	34.1	-0.5	·	-54.9	0.689
COc1ccc(C(=O)NCC(=O)Nc2ccc(-c3ccccc3)cc2)cc1	1.2	i	-4.4	-0.1	-1.2	-2.7	0.691
CC(C)NC(=O)C1c2ccccc2Oc2ccccc21	2.6	·	-2.4	-0.8	·	2.4	0.64
NC(=O)C1(N2CCCCC2)CCN(C(=O)CSc2nc3ccccc3s2)CC1	·	·	-14.2	1.6	·	-1.4	0.683
COC(=O)c1cn(C(=O)c2ccc(OC)c(OC)c2)c2ccccc12	5.7	i	5.0	3.5	·	-1.7	0.7
COc1ccc(N2CCN(C(=O)CN(c3ccccc3)S(C)(=O)=O)CC2)cc1	3.1	·	0.9	-0.6	53.4	1.4	0.693
Cc1ccc2oc(=O)n(CCCOc3ccccc3C)c2c1	5.2	i	2.0	-3.6	7.8	-1.1	0.682
COc1ccc(CC(=O)N2CCN(c3ccc(C4=NNC(=O)CC4C)cc3)CC2)cc1 (centres undefined)	-48.2	·	-0.2	12.4	87.8*	4.5	0.796
CCn1c(CC(=O)Nc2ccc(C)c(Cl)c2)nnc1SCc1ccc(Cl)c(Cl)c1	5.2	·	-6.0	-1.9	-4.9	-0.2	0.637
O=C(COC(=O)Cc1ccc(Br)cc1)NCC1CCCO1 (centres undefined)	1.3	i	0.1	-1.1	-5.1	3.4	0.705
Cc1ccc(NS(=O)(=O)c2cc(OCC(N)=O)c(C)cc2Cl)cc1	1.4	i	-2.5	-0.6	-10.7	-3.0	0.692
COC(=O)CSc1ccccc1C(=O)OC	-4.6	i	7.4	0.1	-4.4	3.3	0.677
CCCCN1C(=N)N([C@@H](CCC)CN2CCC[C@H]2CN2C(N)=NC[C@H]2C(C)C)C[C@H]1[C@H](C)CC	1.7	i	-2.6	·	·	0.7	0.704
COc1ccc(S(=O)(=O)N2CCOCC2)cc1NC(=O)/C=C/c1ccccc1	4.9	i	-1.5	·	·	3.5	0.666
COc1ccc(C2CC(=O)C(C=NCCN3CCOCC3)=C(O)C2)cc1 (centres undefined)	3.8	·	3.2	-0.7	-11.0	0.6	0.664
O=C(c1cn(-c2ccccc2)nc1-c1cccs1)N1CCN(c2ccc(F)cc2)CC1	2.0	·	-18.3	2.3	-10.8	3.8	0.729
CCC(C(=O)Nc1nccs1)(C(F)(F)F)C(F)(F)F	0.4	·	-0.9	-5.3	1.8	-1.8	0.668
CCSc1nc2ccc(C)cc2cc1C#N	-3.1	i	-7.3	-3.8	2.2	2.5	0.713
O=C(O)CCCCCNC(=O)OCC1c2ccccc2-c2ccccc21	1.7	i	-24.7	2.7	-0.3	5.2	0.676
Cc1cccc(/C=N/NC(=O)c2cccc(NC(=O)c3ccccc3)c2)n1	·	i	8.6	0.7	-1.1	1.0	·
Cc1ccc(NC(=O)CN(C)C(=O)CSc2nncn2C)cc1	1.0	·	-31.0	1.7	0.5	2.0	0.712
CCCNS(=O)(=O)c1ccc(OCC(=O)N2CCC(C(=O)OCC)CC2)cc1	1.4	·	1.5	-0.5	-6.7	-3.0	0.724
CN=C(Nc1cccc(Cl)c1)SC1CC(=O)N(c2ccc(OC)cc2)C1=O (centres undefined)	-0.2	i	-1.5	-2.0	-16.8	1.1	0.686

Bioassay records: PubChem BioAssay, several laboratories
